Env fusion inh = inhibitors of HIV Env-mediated cell fusion; HeLa-JRFL Env/CEM21 cell fusion, luciferase; inhibition, % at 12.3 µM; 360,000 compounds, 1.1% hits; AID 651610;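 active = mean replicate inhibition score of at least 50 and every replicate individually at or above 50; inconclusive = only one of the two criteria met; inactive = mean below 50 and not all replicates reaching 50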;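 note: 0% = plate neutral controls and 100% = maraviroc near 300 nM; one replicate is shown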
Rce1 inhib = blocks yeast Ras-converting enzyme | Q03530 | yeast membranes, quenched prenylated peptide cleavage fluorescence | calls only | 290,000 compounds, 0.27% hits;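 active = fall in fluorescence gain of 50% or more versus controls, with final raw signal at or below 3038400; inconclusive = same 50% fall but final raw signal above 3038400; inactive = fall in fluorescence gain under 50%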;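 note: plate controls were neutral control wells for no effect and wells lacking membranes for full effect; tested at 10 µM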
Target sequence (Q03530 whole entry, looked up): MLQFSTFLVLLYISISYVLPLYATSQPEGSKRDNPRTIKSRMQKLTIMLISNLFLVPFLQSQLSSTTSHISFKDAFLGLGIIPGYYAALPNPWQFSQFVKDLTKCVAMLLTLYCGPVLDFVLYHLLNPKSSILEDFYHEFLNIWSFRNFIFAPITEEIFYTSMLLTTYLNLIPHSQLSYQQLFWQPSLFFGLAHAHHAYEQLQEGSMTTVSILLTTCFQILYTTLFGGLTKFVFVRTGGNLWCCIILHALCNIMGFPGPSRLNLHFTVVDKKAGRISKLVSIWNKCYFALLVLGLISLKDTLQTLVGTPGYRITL
CSC inhib = blocks cancer stem cells | cancer stem cell-like cells viability, luminescence | inhibition, % at 7.5 µM | 300,000 compounds, 1.1% hits;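 active = mean at 75% or more and at least half the replicates too; inconclusive = mean and replicates disagree; tested in HMLE shEcad cells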;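 note: 0% = median of negative and 100% = median of positive control wells; the first replicate is given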
eIF4H FP inh = inhibitors of RNA binding by human eIF4H; inhibition, % at 35 µM; 290,000 compounds, 0.94% hits; AID 2012; Q15056; eIF4H fluorescence polarization binding assay;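 active = 50% or more with normal probe brightness, or confirmed in later tests; inconclusive = above 50% with abnormal brightness, or retests that disagree; inactive = below 50% or failed in later tests; about a fifth of its hits are not listed in these tables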;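 note: calls also rest on retests at 20 µM and on dose response follow-up; 0% = protein and probe with vehicle and 100% = probe without protein; strong numbers were not always called active; many hits fall short of the cut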
PABP FP inh = blocks human PABP binding to poly(A) RNA; 290,000 compounds, 1% hits; fluorescence polarization; inhibition, % at 35 µM;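 active = 50% or more with normal probe brightness, or confirmed in later tests; inconclusive = above 50% with abnormal brightness, or retests that disagree; inactive = below 50% or failed in later tests; about a fifth of its hits are not listed in these tables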;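 note: calls also rest on retests at 20 µM and on dose response follow-up; controls were probe without protein and protein plus probe with vehicle; some compounds called inactive have numbers as strong as hits; many hits fall short of the cut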
Target sequence (P11940 whole entry, looked up): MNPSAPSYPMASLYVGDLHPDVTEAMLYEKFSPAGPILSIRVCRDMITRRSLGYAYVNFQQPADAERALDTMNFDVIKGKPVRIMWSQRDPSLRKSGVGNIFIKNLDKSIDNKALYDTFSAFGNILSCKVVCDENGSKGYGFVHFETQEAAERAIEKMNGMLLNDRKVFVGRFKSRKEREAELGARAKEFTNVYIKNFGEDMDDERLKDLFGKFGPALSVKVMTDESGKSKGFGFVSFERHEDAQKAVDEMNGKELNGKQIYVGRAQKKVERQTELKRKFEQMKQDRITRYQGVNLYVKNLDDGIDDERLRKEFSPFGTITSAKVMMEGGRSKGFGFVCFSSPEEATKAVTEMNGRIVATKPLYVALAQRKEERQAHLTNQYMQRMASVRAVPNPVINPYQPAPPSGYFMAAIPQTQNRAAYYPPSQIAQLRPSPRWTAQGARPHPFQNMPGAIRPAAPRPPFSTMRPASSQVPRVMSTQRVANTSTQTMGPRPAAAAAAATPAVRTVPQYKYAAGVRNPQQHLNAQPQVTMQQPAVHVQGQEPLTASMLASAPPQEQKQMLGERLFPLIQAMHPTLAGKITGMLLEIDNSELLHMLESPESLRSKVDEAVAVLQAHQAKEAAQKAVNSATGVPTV
MT1-MMP act inh = MT1-MMP (human) activation inhibition. P50281. HT1080 RFP-PRO-GFP cells, GFP/RFP ratio fluorescence, overnight; percent of plate control window, DMSO zero. GFP/RFP ratio change, % at 20 µM. 360,000 compounds, 0.061% hits. AID 651647;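 active = GFP/RFP ratio change of at least 30% with cell ATP level not reduced by more than half and red fluorescence within 50% of control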; note: strong numbers were not always called active
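Material – HT1080 RFP-PRO-GFP cells · Control set – DMSO wells and RFP-L50D-GFP cells · Incubation – overnight cell settling, then overnight compound exposure, 37 °C, 5% CO2 · Compound dosing – single-point 20 µM compound, 1% DMSO · Read-out – GFP/RFP fluorescence ratio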
UUG fidelity = alters start codon recognition fidelity in yeast. S. cerevisiae UUG-firefly luciferase reporter, luminescence/redox ratio. activity score, % at 18.7 µM. 350,000 compounds, 0.13% hits;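 active = replicate mean at a twofold rise or more, about +100% in these data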;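 note: firefly luciferase made from a UUG start codon reports start codon fidelity; reporter light over untreated wells divided by growth signal over untreated wells; some hits fall short of that in this replicate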
MT1-MMP act inh RFP = also measured in MT1-MMP act inh; calls as there; RFP signal change, %; measured here: RFP expression control read;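 0 = vehicle wells; hits needed this value within 50% of zero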
Numbers without * were called inactive; i = inactive; ? = inconclusive; . = not tested or not shown.

item	Structure	Env fusion inh	Rce1 inhib	CSC inhib	eIF4H FP inh	PABP FP inh	MT1-MMP act inh	MT1-MMP act inh RFP	UUG fidelity
1	CCc1ccc(C(=O)c2cnc3ccc(OC)cc3c2N2CCN(CC)CC2)cc1	-23	i	3	-7	5	-2	2	-11
2	CN(C)S(=O)(=O)c1cccc(NC(=O)c2c[nH]c3ccccc23)c1	-5	i	15	-14	-2	-1	-1	-8
3	CCC1Sc2ccc(S(=O)(=O)CCC(=O)NCc3cccs3)cc2NC1=O (stereo not drawn)	5	i	21	.	.	-1	-6	.
4	COc1cccc(CNC(=O)CCS(=O)(=O)c2ccc3c(c2)NC(=O)CO3)c1	-5	i	8	-6	-4	3	6	5
5	COc1ccc(CCC(=O)N2CCN(S(=O)(=O)c3ccc(OC)c([N+](=O)[O-])c3)CC2)cc1	-40	.	.	.	.	5	-6	-4
6	CCc1[nH]c(=S)c(C#N)c2c1CCCC2	-13	i	-4	-6	0	2	7	.
7	CCOC(=O)C1CCN(C(=O)CCn2c(=O)c3cccn3c3cccnc32)CC1	2	i	-5	-9	6	1	-1	0
8	O=C(Nc1ccc(N2CCN(C(=O)c3ccco3)CC2)cc1)c1ccccc1F	-29	i	-9	2	-2	15	7	2
9	Cc1cccc2sc(N(CCCN(C)C)C(=O)CCS(=O)(=O)c3ccccc3)nc12	0	i	3	-5	6	-8	-3	-1
10	CCOC(=O)c1cc2c(ccn2C)n1Cc1ccccc1Cl	36	i	21	10	8	-3	-1	.
11	Cc1nc(-c2cccc(S(=O)(=O)N3CC(C)OC(C)C3)c2)cs1 (stereo not drawn)	.	i	-13	-12	-5	4	-5	-14
12	COCCNC(=O)c1cc2cc(Br)cc(OC)c2oc1=O	-27	i	.	5	7	5	0	7
13	CC(=O)N/C(=C/c1ccccc1)c1ccccc1	-14	.	5	.	.	0	3	-15
14	C=CCn1c(SCCN2CCCCC2)nc2c1c(=O)[nH]c(=O)n2C	-12	i	2	-3	4	8	7	-19
15	Cc1cccc(NS(=O)(=O)c2cc3c4c(c2)CCN4C(=O)CC3)c1C	.	i	-6	.	.	3	-1	-8
16	COc1ccc(CCN2CC(C(=O)NCc3ccccc3)CCC2=O)cc1 (stereo not drawn)	-5	i	.	-11	1	-4	0	.
17	CC1CCCN(CCCNS(=O)(=O)c2cc(Br)cc3c2N(C(=O)C2CC2)CC3)C1 (stereo not drawn)	5	i	-6	2	11	-1	6	-8
18	Cc1c(C(=O)Nc2cc(S(=O)(=O)N3CCOCC3)ccc2N2CCN(C)CC2)oc2ccccc12	5	i	8	8	4	-6	-6	.
19	O=C1[C@H]2[C@@H](c3ccc(F)cc3)N3C(=O)N(c4cccc(Br)c4)C(=O)[C@@]3(Cc3ccc(Cl)cc3)[C@H]2C(=O)N1C1CCCCC1	59*	i	18	4	-3	-6	-3	-9
20	CCCCn1c(N)c(N(CC(C)C)C(=O)c2cccc(-n3cnnn3)c2)c(=O)[nH]c1=O	.	i	13	.	.	-3	-2	1
21	O=S(=O)(c1ccccc1)N1CCN(c2ncccn2)CC1	.	i	-1	-12	-4	0	3	-16
22	CCN(CC)CCN1C(=O)C(=O)/C(=C(/O)c2ccc(OC)c(OC)c2)C1c1ccccn1 (stereo not drawn)	-28	i	-10	12	10	1	6	-22
23	CC(Oc1ccc(Cl)cc1Cl)C(=O)Nc1cccc(O)c1 (stereo not drawn)	-21	i	-23	-9	2	-7	-1	-2
24	COc1ccc(NC2CCCN(C(=O)c3ccccc3N3CCOCC3)C2)cc1OC (stereo not drawn)	-24	i	-10	0	-6	-3	3	13
25	O=C(NCCS(=O)(=O)N1CCCCC1)c1ccccc1	-12	i	-11	.	.	-4	0	-2
26	CC(=O)Oc1ccc(C#C/C=C2\c3ccccc3C(=O)N2c2ccccc2)cc1	.	.	134*	.	.	-20	-4	-27
27	COCCN(C(=O)COC(=O)c1ccccc1Nc1ccccc1)c1c(N)n(Cc2ccccc2)c(=O)[nH]c1=O	.	i	-7	.	.	-14	-10	.
28	CCc1ccccc1N/N=C(/C)c1c(O)cc(C)oc1=O	12	i	-9	8	-1	1	1	-17
29	O=C(NCCC(=O)N1CCN(c2cccc(Cl)c2)CC1)c1ccc(Br)cc1	.	.	20	.	.	3	-2	8
30	COc1ccc(Cn2cnc3sccc3c2=O)cc1	.	.	-4	-6	-1	1	5	.
31	CCc1ccc(OCC(=O)NCCc2ccc3c(c2)OCCO3)cc1	8	.	.	.	.	0	1	-13
32	CCOC(=O)N1CCC(N(CCN(C)C)C(=S)Nc2cccc(Cl)c2C)CC1	23	i	3	12	4	3	-2	.
33	Cc1ccc(C(=O)NCC(c2cccs2)N(C)C)cc1S(=O)(=O)N1CCOCC1 (stereo not drawn)	.	.	0	.	.	-3	0	-28
34	CCCCCOC(=O)CSc1nc2c(c(=O)[nH]c(=O)n2C)n1CCc1ccccc1	.	i	-5	5	0	2	5	-17
35	CCC1CN(C(=O)N2CCC(C(=O)NCc3ccccc3OC)CC2)c2ccccc2O1 (stereo not drawn)	1	i	-5	-4	0	-4	-7	-11
36	CCOc1ccc2nc(SCc3ccc(CC(=O)O)cc3)c(C#N)cc2c1	7	i	11	4	12	2	2	3
37	COc1ccc(CCNC(=O)c2c(O)c3cccc4c3n(c2=O)CC4)cc1OC	.	i	7	0	0	-1	3	-15
38	N#CCc1ccc(-c2cccc3nccn23)cc1	-81	.	.	.	.	0	0	-15
39	COc1cc(OC)nc(NC(=O)CS(=O)(=O)c2ccccc2)n1	.	i	-3	-4	?	5	1	27
40	CCc1[nH]nc2c1C1(CCN(C(=O)c3ccccc3)CC1)C(C#N)=C(N)O2	.	i	-3	5	-5	0	5	.

Some of these compounds in order of formula weight, smallest number first.
item	Structure	Env fusion inh	Rce1 inhib	CSC inhib	eIF4H FP inh	PABP FP inh	MT1-MMP act inh	MT1-MMP act inh RFP	UUG fidelity
38	N#CCc1ccc(-c2cccc3nccn23)cc1	-81	.	.	.	.	0	0	-15
30	COc1ccc(Cn2cnc3sccc3c2=O)cc1	.	.	-4	-6	-1	1	5	.
28	CCc1ccccc1N/N=C(/C)c1c(O)cc(C)oc1=O	12	i	-9	8	-1	1	1	-17
39	COc1cc(OC)nc(NC(=O)CS(=O)(=O)c2ccccc2)n1	.	i	-3	-4	?	5	1	27
31	CCc1ccc(OCC(=O)NCCc2ccc3c(c2)OCCO3)cc1	8	.	.	.	.	0	1	-13
40	CCc1[nH]nc2c1C1(CCN(C(=O)c3ccccc3)CC1)C(C#N)=C(N)O2	.	i	-3	5	-5	0	5	.
36	CCOc1ccc2nc(SCc3ccc(CC(=O)O)cc3)c(C#N)cc2c1	7	i	11	4	12	2	2	3
26	CC(=O)Oc1ccc(C#C/C=C2\c3ccccc3C(=O)N2c2ccccc2)cc1	.	.	134*	.	.	-20	-4	-27
37	COc1ccc(CCNC(=O)c2c(O)c3cccc4c3n(c2=O)CC4)cc1OC	.	i	7	0	0	-1	3	-15
32	CCOC(=O)N1CCC(N(CCN(C)C)C(=S)Nc2cccc(Cl)c2C)CC1	23	i	3	12	4	3	-2	.
34	CCCCCOC(=O)CSc1nc2c(c(=O)[nH]c(=O)n2C)n1CCc1ccccc1	.	i	-5	5	0	2	5	-17
35	CCC1CN(C(=O)N2CCC(C(=O)NCc3ccccc3OC)CC2)c2ccccc2O1 (stereo not drawn)	1	i	-5	-4	0	-4	-7	-11
29	O=C(NCCC(=O)N1CCN(c2cccc(Cl)c2)CC1)c1ccc(Br)cc1	.	.	20	.	.	3	-2	8

Remaining list, next part.
item	Structure	Env fusion inh	Rce1 inhib	CSC inhib	eIF4H FP inh	PABP FP inh	MT1-MMP act inh	MT1-MMP act inh RFP	UUG fidelity
41	CCCCn1c(=O)[nH]c(=O)c2c1nc(-c1ccccc1OC(F)F)n2C	-3	i	11	1	9	0	2	8
42	Cc1sc2ncnc(N3CCC(C(=O)Nc4ccccc4C(C)(C)C)CC3)c2c1C	40	i	-5	.	.	-15	-14	-16
43	CC#CCN1c2ccccc2[C@]23C[C@@H](C(=O)OC)N=C2NC(C(=O)OC)=C(C(=O)OC)[C@H]13	1	i	8	-7	10	-3	3	-11
44	CCOc1ccc(S(=O)(=O)n2cnc3ccccc32)cc1	-8	i	-9	0	1	-2	-4	-5
45	O=C(NC1CC1)c1cc(=S)[nH]c2ccccc12	39	.	6	.	.	2	0	-17
46	O=C(NCc1ccccc1)C1C(=O)N(Cc2ccccc2)C(=O)C1C1(O)CCCC1 (stereo not drawn)	-166	i	-11	-4	-11	0	5	-17
47	Cc1ccc(Nc2c([N+](=O)[O-])ccc3nonc23)c(C)c1	-3	i	-2	2	5	7	0	.
48	COc1ccc(OC)c(CC(=O)Nc2ccc3c(c2)c(=O)n(C)n3Cc2cccc(C(F)(F)F)c2)c1	24	.	.	.	.	3	-3	-1
49	Fc1ccc(-c2csc3nnc(SCc4cccnc4)n23)cc1	.	i	-1	4	7	5	2	-17
50	CSc1ccccc1C(=O)N1CCC2(CC1)CC(=O)c1ccccc1O2	22	i	-17	.	.	0	-2	1
51	COc1ccc(CN2C3CCCC2CC(NC(=O)Nc2ccccc2C)C3)cc1 (stereo not drawn)	10	i	4	4	4	4	6	-13
52	COc1cc(Br)cc(C=Nc2cccc(C(F)(F)F)c2)c1O	-7	i	16	2	5	-1	6	.
53	CN(C)S(=O)(=O)c1ccc(SCC(=O)Nc2cccc(S(=O)(=O)N3CCCC3)c2)nc1	5	.	.	.	.	0	-6	-7
54	COC(=O)CNC(=O)CN1C(=O)N(c2cccc(Cl)c2)C(N(O)C(=O)Nc2cccc(Cl)c2)C1(C)C (stereo not drawn)	.	i	-1	4	-11	8	0	.
55	Cc1nc2ccc(-c3nc4ccccc4[nH]3)cc2[nH]1	-125	i	-1	-4	-1	13	0	.
56	CCN(CC)c1ccc(/C=N/NC(=O)CNC(=O)c2ccccn2)cc1	2	i	-10	2	45	4	9	.
57	COCCC(=O)N1CCCC(C(=O)c2ccc3c4c(cccc24)CC3)C1 (stereo not drawn)	12	i	-3	1	-4	-10	2	.
58	O=C(c1cc([N+](=O)[O-])ccc1N1CCOCC1)N1CCCC1	0	i	4	5	0	0	-1	-4
59	CC1(Cc2ccc3ccccc3n2)C(=O)Nc2ccc(OC(F)(F)F)cc21 (stereo not drawn)	4	.	.	.	.	-6	-2	-7
60	Cc1cccc(NC2=NCC(=O)N2Cc2ccccc2)c1	1	i	14	3	20	-13	-9	6
61	CC1=C(C)C(O)N(Cc2ccccc2)C1=O (stereo not drawn)	-4	i	-7	-5	-8	-1	2	-14
62	CCOc1ccccc1NS(=O)(=O)c1ccc(-c2cnc(C3CC3)o2)cc1	10	i	17	3	2	9	-5	-16

Bioassay records: PubChem, several laboratories
